# POLH inh = inhibitors of human DNA polymerase eta. Q9Y253. recombinant Pol eta, fluorescent DNA replication assay. Potency, µM (highest dose often 114 µM), for inactives: at the top dose activity change, negative = inhibition, actives largely listed as inhibitors. 1.2% of 390,000 active. AID 588591; note: % is set by controls: 0 for no effect and ±100 for the full control effect
#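 Pol eta (10 nM) was preincubated with compounds for 15 min at room temperature, after which fluorescent replication substrate (50 nM final) was added to start the reaction. Fluorescence was read kinetically at 0 and 10 min.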
# G9a block = blocks human histone lysine methyltransferase G9a; Q96KQ7; G9a H3K9 monomethylation, AlphaScreen, 2 h; Potency, µM (titrated, usually from 102 µM), without a hit: top-dose activity, negative = inhibition, usual class: inhibitors; 8.8% of 350,000 active; AID 504332; note: % is set by controls: 0 for no effect and ±100 for the full control effect; nearly all actives have a fitted effect of over 75% in size
# Target sequence (Q96KQ7 913-1193 limits assumed): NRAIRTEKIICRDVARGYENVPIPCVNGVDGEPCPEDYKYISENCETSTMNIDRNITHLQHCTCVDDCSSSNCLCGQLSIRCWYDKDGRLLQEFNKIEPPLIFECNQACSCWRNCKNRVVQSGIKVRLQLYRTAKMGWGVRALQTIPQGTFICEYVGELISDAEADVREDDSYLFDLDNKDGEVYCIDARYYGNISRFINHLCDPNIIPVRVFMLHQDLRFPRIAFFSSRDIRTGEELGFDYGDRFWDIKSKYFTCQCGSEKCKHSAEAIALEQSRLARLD
#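 Chemiluminescent proximity detection of H3K9 monomethylation, read after 10 min bead incubation in the dark. Reaction: 20 nM G9a, 500 nM biotin-H3K9 peptide, 20 uM SAM cofactor, 2 h, room temperature, following 15 min enzyme-compound preincubation.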
# Pol beta inh = inhibitors of human DNA polymerase beta; P06746; Pol beta primer extension/strand displacement, fluorescence kinetic; Potency, µM (highest dose often 114 µM), inactives show top-dose activity change, negative = inhibition, most hits filed as inhibitors; 1.3% of 340,000 active; AID 485314; note: % is set by controls: 0 for no effect and ±100 for the full control effect
#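 Human Pol beta at 10 nM; strand-displacement substrate 50 nM final. Compound exposure 15 min at room temperature before start, reaction 10 min at room temperature.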
# Pol iota inh = DNA polymerase iota (human) inhibition | Q9UNA4 | Pol iota fluorescent replication assay, 10 min | Potency, µM (top dose mostly 115 µM), for inactives: top-dose activity, negative = inhibition, hits mostly inhibitors | 1% of 390,000 active | AID 588590
# Target sequence (Q9UNA4 whole entry, looked up): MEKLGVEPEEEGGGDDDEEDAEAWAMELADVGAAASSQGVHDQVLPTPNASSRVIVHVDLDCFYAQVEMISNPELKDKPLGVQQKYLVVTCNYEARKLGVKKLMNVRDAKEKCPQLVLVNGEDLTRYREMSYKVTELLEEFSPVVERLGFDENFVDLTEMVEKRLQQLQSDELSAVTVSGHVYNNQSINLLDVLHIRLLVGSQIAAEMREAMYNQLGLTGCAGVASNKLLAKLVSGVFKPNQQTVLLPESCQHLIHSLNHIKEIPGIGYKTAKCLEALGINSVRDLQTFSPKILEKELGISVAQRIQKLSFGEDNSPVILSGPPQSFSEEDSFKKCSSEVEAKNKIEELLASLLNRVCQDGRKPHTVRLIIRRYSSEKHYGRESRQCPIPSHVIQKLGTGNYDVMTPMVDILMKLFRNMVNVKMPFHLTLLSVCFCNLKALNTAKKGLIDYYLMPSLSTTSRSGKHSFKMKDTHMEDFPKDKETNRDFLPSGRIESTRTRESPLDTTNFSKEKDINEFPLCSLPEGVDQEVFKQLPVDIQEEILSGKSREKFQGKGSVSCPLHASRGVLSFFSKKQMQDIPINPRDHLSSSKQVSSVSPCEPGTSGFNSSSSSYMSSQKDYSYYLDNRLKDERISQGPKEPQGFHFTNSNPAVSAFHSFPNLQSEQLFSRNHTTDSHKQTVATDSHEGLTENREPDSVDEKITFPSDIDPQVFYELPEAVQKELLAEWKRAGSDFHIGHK
#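 Pol iota at 10 nM preincubated 15 min with compounds at room temperature; reaction started with fluorescent substrate, 50 nM final. Fluorescence read kinetically at 0 and 10 min; buffer-only wells as negative control.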
# Pol kappa inh = blocks human DNA polymerase kappa activity; Q9UBT6; purified Pol kappa, fluorescent DNA synthesis assay, 10 min; Potency, µM (top dose mostly 107 µM), for the others: at the highest dose activity, negative = inhibition, usual class: inhibitors; 0.53% of 400,000 active; AID 588579; note: % is set by controls: 0 for no effect and ±100 for the full control effect
#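 Fluorescent qHTS in 1536-well format: enzyme (10 nM) and compound sat 15 min at room temperature before 50 nM substrate (final) was added. Signal taken at 0 and 10 min; no-enzyme buffer wells were negative controls.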
# APE1 inh = inhibitors of human APE1 endonuclease. P27695. recombinant APE1, TAMRA/BHQ-2 abasic DNA cleavage fluorescence. Potency, µM (top dose mostly 65.8 µM), for inactives: top-dose activity change, negative = inhibition, usual class: inhibitors. 0.35% of 350,000 active. AID 2517;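 note: plate controls were vehicle for no effect and reference inhibitor for full effect; nearly all actives have a fitted effect of over 55% in size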
#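 Quantitative HTS: incision of a TAMRA/BHQ-2 double-stranded substrate bearing a tetrahydrofuran abasic site by 0.75 nM APE1 raises fluorescence. Substrate 50 nM final, added after 15 min compound preincubation at room temperature; progress as third-minus-first kinetic read difference.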
# BLM helicase inh = inhibitors of human Bloom syndrome helicase BLM. Potency, µM (doses to about 56.1 µM), inactives show top-dose activity change, negative = inhibition, usual class: inhibitors. AID 2528. 0.2% of 350,000 active. recombinant BLM DNA unwinding, fluorescence dequenching;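 note: plate controls were vehicle for no effect and no enzyme for full effect; nearly all actives have a fitted effect of over 35% in size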
# An asterisk follows results filed as active; u = inconclusive; x = no result given; [ ] = another dose, or the depositor's remark. Calls come from the whole dose curve; as a rule, active = well fitted curve in the direction sought with a large enough effect; inconclusive = small, poorly fitted or top-dose-only effect, or another doubt; inactive = no such curve, though single readings can be large; an effect the other way counts as inactive or inconclusive. Potency is the fitted concentration of half-maximal effect. These rows are one share of the data; the hit share may differ from the screen's.
# Each structure is followed by: POLH inh	Pol kappa inh	Pol iota inh	Pol beta inh	BLM helicase inh	APE1 inh	G9a block
CCS(=O)(=O)N1CCN(C2Cc3ccccc3C2)CC1
→ -2%	-12%	26%	1%	-3%	6%	7.9µM*
O=C(COC(=O)c1ccc(NS(=O)(=O)c2ccc3c(c2)OCCO3)cc1)NC1CCS(=O)(=O)C1 (configuration not stated)
→ -14%	12%	30%[activator]	-7%	0%	-1%	-29%
CC1=CC(C)(C)N(C(=O)c2ccc(F)cc2)c2cc3c(cc21)OCO3
→ -19%	-19%	18%	-1%	-1%	-6%	u
COc1cc(OC)cc(C(=O)N2CCC(N3CCCCCC3)CC2)c1
→ 0%	-13%	-3%	12%	-8%	-5%	10µM*
CCOc1ccc(CN2CCN(C(=O)c3cccc(F)c3)CC2)cc1
→ -10%	-4%	11%	14%	1%	1%	7.1µM*
O=C(CCC(=O)N1CC2CCCN2c2ccccc21)NCc1cccc(Cl)c1 (configuration not stated)
→ -21%	0%	-22%	-5%	-6%	x	u
Cc1ccc(Nc2ccc(NCc3ccccc3)nn2)cc1C
→ -10%	-10%	13%	0%	-3%	-8%	u
N/C(=N\NC(=O)Nc1ccccc1)c1ccccn1
→ -3%	-4%	22%	1%	-1%	2%	u
COc1ccc(Br)cc1CN(C)CC(=O)NCCc1ccccc1
→ -23%	-9%	33%[activator]	-20%	1%	0%	4µM*
c1ccc(SCCOCCn2cncn2)cc1
→ 11%	-5%	-23%[58.9 µM]	-10%	-3%	3%	13µM*
CCN(CC)C(=O)C1CCN(Cc2ccc(Br)cc2)CC1
→ -7%	3%	-8%	3%	-2%	3%	u
O=C(CCC(=O)N1CC2CCCN2c2ccccc21)NCc1ccc(Cl)cc1 (configuration not stated)
→ -14%	-15%[60.1 µM]	-9%	0%	-3%	x	-51%[59 µM]
O=[N+]([O-])c1ccc(S(=O)(=O)N2CCN(Cc3c[nH]c4ccccc34)CC2)cc1
→ -13%	0%	12%	-19%	-6%	10%	u
Cc1ccc(S(=O)(=O)N2CCN(C(=O)CN3CCc4ccccc4C3)CC2)cc1
→ -8%	0%	u	12%	0%	14%	u
O=[N+]([O-])c1cc(C=NN2CCCCCC2)ccc1Cl
→ 5%	-11%	100%[activator]	x	x	x	x
O=C(CN1CCSCC1)N/N=C/c1ccc(F)c(F)c1
→ -6%	8%	u	3%	8%	-7%	5.6µM*
Cc1ccc(C)c(N2CCN(C(=O)c3ccc(CSc4nc5ccncc5[nH]4)cc3)CC2)c1
→ -21%	0%	12%	15%	-2%	8%	14µM*
COc1ccc2c(c1)C(=O)C(=O)N2CC1COc2ccccc2O1 (configuration not stated)
→ -15%	-14%	3%	u	-4%	-26%	50µM*
O=C(Nc1nnc(-c2ccncc2)o1)c1ccccc1
→ -18%	-2%	61%[activator]	12%	1%	-6%	-38%
Cc1cccc(-n2cnc(C(=O)O)c2)n1
→ -4%	-8%	u	20%	0%	-2%	-42%
C=CCSc1nnc(N2C(=O)C(O)=C(C(=O)c3ccco3)C2c2ccccc2F)s1 (configuration not stated)
→ -24%	-23%	u	-27%	-7%	-23%	x
CCCCCCCCn1cnc2c(N)c(C)c(C)cc21
→ -16%	-9%	5%	-3%	-16%	7%	-15%[0.0925 µM]
Cc1nnc(SCC(=O)Nc2nnc(-c3ccccc3)o2)s1
→ -1%	-6%	12%	x	x	12%	13µM*
CCOc1cc(CNc2ncc(-c3ccc(OC)cc3)n2C)ccc1O
→ -15%	-20%	3%	25%	-1%	-3%	1.8µM*
Fc1ccccc1CNCc1ccc2c(c1)OCO2
→ -8%	5%	11%	59%	-3%	26%	5%[59 µM]
Cc1cc(F)ccc1NCc1ccccc1[N+](=O)[O-]
→ -15%	6%	71%[activator]	-13%	1%	7%	28µM*
COc1cc(S(=O)(=O)NCCN2CCOCC2)ccc1-n1cnnn1
→ -3%	-10%	21%	-25%	1%	0%	7.9µM*
O=S(=O)(c1ccccc1C(F)(F)F)N1CCN(CC(O)COc2ccccc2F)CC1 (configuration not stated)
→ -12%	-1%	8%	10%	-4%	-14%	-4%[0.501 µM]
Cc1cc(N2CCN(C)CC2)nc2ccc(NC(=S)NCCN3CCc4ccccc4C3)cc12
→ -28%	-14%	54%[activator]	-27%	40%[activator]	-3%	32µM*
COc1ccc(C(=O)N2CCC(n3c(C)nc4cc(F)ccc43)CC2)cc1OC
→ 2%	-24%	23%	0%	-3%	-3%	-13%[59 µM]
O=C(COc1cccc(F)c1)NNC(=O)c1cccc(-n2cccc2)c1
→ u	u	u	x	x	-23%	3%
COc1cc(-c2cc(OC)c3c(C)oc(C)c3c(=O)c2)ccc1O
→ -21%	-9%	24%	3%	-11%	7%	45µM*
Cc1nc(-c2ccc([N+](=O)[O-])cc2)c(-c2ccccc2)o1
→ -13%	-9%	175%[activator]	0%	-3%	-3%	16µM*
CN(C)c1nc2ccccc2c(N)c1-c1ccccc1
→ -8%	-11%	-8%	-1%	-14%	1%	4µM*
CCOC(=O)C(NC(=O)CC)(Nc1sc2c(c1C(=O)OC)CCN(C)C2)C(F)(F)F (configuration not stated)
→ -17%	-6%	28%	13%	-6%	-2%	14%
CCCn1c(=O)c2ccccc2n2c(SCCNCCO)nnc12
→ -17%	-6%	-25%	0.16µM*	0%	23%	2.8µM*
CN1CCN(Cc2cc(Cl)c3cccnc3c2OC(=O)c2cccs2)CC1
→ -26%	-1%	39%[activator]	18%	-8%	12%	21%[59 µM]
O=C(COc1ccccc1-c1nc(-c2ccccc2)no1)Nc1ccccc1[N+](=O)[O-]
→ -7%	-13%	15%	2%	-6%	x	u
Cc1ccccc1CN(C)CC(=O)Nc1ccccc1Oc1ccccc1
→ -10%	-17%	6%	-1%	-3%	-4%	8.9µM*
COc1ccc(OCC(=O)Nc2cccc(C(C)=O)c2)cc1
→ 0%	2%	-11%	11%	-1%	2%	9%[59 µM]

# Reformatted as labelled records: 3 of the compounds above
CCCCCCCCn1cnc2c(N)c(C)c(C)cc21
  POLH inh: -16% | Pol kappa inh: -9% | Pol iota inh: 5% | Pol beta inh: -3% | BLM helicase inh: -16% | APE1 inh: 7% | G9a block: -15%[0.0925 µM]

Cc1nnc(SCC(=O)Nc2nnc(-c3ccccc3)o2)s1
  POLH inh: -1% | Pol kappa inh: -6% | Pol iota inh: 12% | Pol beta inh: x | BLM helicase inh: x | APE1 inh: 12% | G9a block: 13µM*

CCOc1cc(CNc2ncc(-c3ccc(OC)cc3)n2C)ccc1O
  POLH inh: -15% | Pol kappa inh: -20% | Pol iota inh: 3% | Pol beta inh: 25% | BLM helicase inh: -1% | APE1 inh: -3% | G9a block: 1.8µM*

# (continued)
# Each structure is followed by: POLH inh	Pol kappa inh	Pol iota inh	Pol beta inh	BLM helicase inh	APE1 inh	G9a block
COCCNc1nnc(SCC(=O)Nc2nnc(-c3ccccc3)o2)s1
→ -24%	-4%	17%	x	x	-4%	-9%[59 µM]
CN1C(=O)C(O)(CC(=O)c2cccc(-n3cccc3)c2)c2ccccc21 (configuration not stated)
→ -5%	-3%	-4%	2%	0%	-3%	-27%[12.7 µM]
CC1CCCCC1NCc1cccc([N+](=O)[O-])c1 (configuration not stated)
→ -6%	-5%[60.1 µM]	-11%	1%	-3%	-4%	18µM*
COc1cc(OC)c(OC)cc1CNC1CCCCCC1
→ -10%	-3%	12%	-23%	-7%	-9%	7.9µM*
COc1cccc(OCC(=O)Nc2nnc3n2CCS3)c1
→ 3%	-5%[60.1 µM]	3%	16%	1%	x	3.2µM*
COc1ccccc1C(=O)N/N=C(\C)CC(=O)Nc1ccc(Nc2ccccc2)cc1
→ -6%	3%	-13%	19%	-6%	-16%	40µM*
Cc1ccc(OCCOCCN2CCN(C)CC2)c([N+](=O)[O-])c1
→ 0%	-7%	u	-1%	-1%	-3%	x
Cc1ccc(Nc2nc(N)nc(CN3CCCCCC3)n2)c(C)c1
→ -6%	-6%	0%	-1%	5%	-1%	u
O=C(c1nc(-c2ccc(Cl)cc2)n2c1CCCCC2)N1CCN(c2ccccc2F)CC1
→ -24%	-7%	20%	15%	-5%	x	u
CC(C)c1cccc(C(C)C)c1NC(=O)CNCc1ccccc1F
→ -16%	3%	-4%	-12%	1%	15%	7.9µM*
O=C(NN=C1CCC(=NNC(=O)c2cccnc2)CC1)c1cccnc1
→ -2%	-2%	6%	-23%	-1%	9%	18µM*
CC1CCc2nc(NC(=O)CN3CCN(c4ccc(F)cc4)CC3)sc2C1 (configuration not stated)
→ -11%	-17%	-7%	0%	-16%	0%	u
COc1ccc(NC(=O)CN2CCc3ccccc3C2)c([N+](=O)[O-])c1
→ -18%	-5%	150%[activator]	2%	-5%	-12%	x
CN(Cc1ccccc1)Cc1ccccc1F
→ 4%	-1%	17%	33%	-2%	-8%	8.9µM*
Cc1nnc(N/N=C/c2cc([N+](=O)[O-])c(N3CCC(C)CC3)cc2N2CCC(C)CC2)n1N
→ -16%	-13%	4µM*	-23%	-19%	3%	u
CN1CCN(CC(=O)N/N=C/c2ccc(F)c(F)c2)CC1
→ -5%	-5%	13%	31%	2%	-2%	16µM*
N#Cc1ccc(OCCOCCNC2CCCC2)cc1
→ -8%	-17%	69%[activator]	7%	1%	5%	u
COc1ccc(OC)c(CN2CCN(C(=O)c3cccs3)CC2)c1
→ 4%	-6%	7%	29%	-3%	16%	8.9µM*
COc1cc(C(=O)Nc2nnc(C3=COCCO3)o2)cc(OC)c1OC
→ -18%	-4%	26%	0%	-5%	-4%	12%
COc1c(/C=C2\SC(=Nc3ccccc3Cl)NC2=O)cccc1[N+](=O)[O-]
→ u	-14%	2%	u	-16%	42%	-49%
OCC1CCCC(n2cnc3c(=S)nc[nH]c32)O1 (configuration not stated)
→ -20%	-2%	51%[activator]	56%	-4%	15%	x
Clc1cccc(CSc2nccn2-c2ccccc2)c1
→ -21%	-14%	7%	4%	-8%	-2%	x
Cc1ccc(-c2nc3sccn3c2Nc2ccc(C)c(C)c2)cc1
→ -19%	-3%	-8%	-25%	-13%	x	11µM*
CCOC(=O)C1CCN(Cc2ccc(F)cc2F)CC1
→ -16%	5%	26%	-3%	0%	-5%	13µM*
CC(NCC(=O)Nc1cc(S(=O)(=O)N2CCCCCC2)ccc1Cl)c1ccccc1 (configuration not stated)
→ 2%	7%	-6%	4%	-8%	1%	10µM*
CCN(CC)C(=O)C1CCCN(Cc2ccc(F)c(F)c2)C1 (configuration not stated)
→ -6%	-3%	-1%	-1%	3%	0%	u
c1ccc(CN2CCN(C(c3ccccc3)c3ccccc3)CC2)cc1
→ -19%	-10%	117%[activator]	18%	-5%	27%	u
CN1CCN(c2ccc(-c3cc(O)c4ncccc4c3)cc2)CC1
→ x	x	x	x	x	-3%	0%[12.7 µM]
CNC(=S)NNc1ccccc1[N+](=O)[O-]
→ -9%	4%	136%[activator]	-23%	-9%	1%	3.5µM*

# Compound activity from PubChem BioAssay.
